Compound activity from PubChem.
Prx2 Sm inh = blocks S. mansoni peroxiredoxin 2 enzymatic activity; S. mansoni Prx2 activity coupled to TGR/GSH (TGR is thioredoxin glutathione reductase), NADPH fluorescence loss, qHTS; some inactives read as strong as hits; Potency, µM; 65,000 tested, 0.07% active; AID 448; active means full or partial inhibition curve with a strong effect at the top dose; inconclusive means weaker partial or single-point curve; inactive means no accepted curve; note: series up to 57 µM; many of its hits are not listed in these tables
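Enzyme mix: 100 uM NADPH, 25 nM TGR, 700 uM GSH, 50 nM Prx2 in 100 mM phosphate pH 7.4, 10 mM EDTA, 0.01% Tween-20. 15 min RT with compound; NADPH/GSH added, H2O2 starts reaction; NADPH fluorescence read 8 min.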
LT uptake inh = blocks cellular internalization of anthrax lethal toxin; Cells, anthrax lethal toxin internalization, FRET ratio (460/530); Potency, µM (doses to about 40 µM), for inactives: at the highest dose activity change, negative = inhibition, most hits filed as inhibitors; AID 912; 70,000 tested, 0.67% active; active = well fitted falling ratio curve with the 530 nm signal flat; inconclusive = other ratio curves, or a change in one channel alone; inactive = flat curves in the ratio and both channels; the % refers to the ratio; note: % is set by controls: 0 for no effect and ±100 for the full control effect; nearly all actives have a fitted effect of over 50% in size; tested in ME-180 cells; beta-lactamase reporter
An asterisk follows results filed as active; ? = inconclusive; nt = not tested or not shown; & = joins results of further samples; ! = not confirmed by another sample; [ ] = dose if it differs, or a comment. Potency is the fitted concentration of half-maximal effect. Not all compounds are listed; rates above refer to the full screens.

SMILES | Prx2 Sm inh | LT uptake inh
COC(=O)COc1nc(C)c(Br)c(OC)n1 | >57 | -9%
CCOC(=O)CN1CC23C=CC(O2)C(C(=O)N2CCN(c4ccc(F)cc4)CC2)C3C1=O (stereo not given) | >57 | 8%
O=C(Cn1cc2c(n1)CCCCC2)N1CCc2ccccc2C1 | >57 | 12%
Cc1ccc(NCc2nnc(SCC(=O)c3ccccc3)n2Cc2ccco2)c(C)c1 | >57 | 0%
O=C(CN(C1CC1)S(=O)(=O)c1ccc(S(=O)(=O)N2CCCCCC2)cc1)Nc1ccccc1 | >57 | 17%
CCCOC(=O)NC(CC)COC(=O)Nc1cc(C)ccc1C (stereo not given) | >57 | 0%
CCOC(=O)c1c(C)oc2ccc(NS(=O)(=O)c3ccc4c5c(cccc35)C(=O)N4)cc12 | >57 | -29%
CC1CCCCN1C(=O)Cn1c(=O)n(CCC(=O)NCc2ccco2)c(=O)c2sccc21 (stereo not given) | >57 | 0%
COc1cccc(OC)c1C(=O)N1CCN(c2ccccn2)CC1 | >57 | -1%
COc1cccc(-c2ccc3ncnc(NC4CC4)c3c2)c1 | >57 | ?
CCOC(=O)Cc1csc(NC(=O)c2c(-c3c(F)cccc3Cl)noc2C)n1 | >57 | 11%
CCCn1c(-c2ccc(F)cc2)nc2c(N3CCN(Cc4nc(OC)cc(OC)n4)CC3)nc(C)nc21 | nt | ?
COc1ccc(-n2nnnc2S(=O)(=O)Cc2ccc(C(=O)O)cc2)cc1 | ? | ?
Nc1nc2sc3c(c2c(=O)s1)CCCC3 | >57 | 5%
CC(C)(C)N1C(=O)[C@H]2[C@H]3[C@H](O)[C@H](O)C/C(=N/OCc4ccccc4)[C@H]3CC[C@@H]2C1=O | nt | ?
N#Cc1ccc(CN2CCN(C(=O)c3ccccc3)CC2)c(Cl)c1 | >57 | 0%
CCCCCOC(=O)Cn1c(N2CCCCCC2)nc2c1c(=O)[nH]c(=O)n2C | >57 | -10%
CN1CCN(c2ncc3nc(-c4cccs4)c(=O)n(CCC#N)c3n2)CC1 | >57 | ?
O=C(N1CCOCC1)N1CCCC(c2nc(-c3cccs3)no2)C1 (stereo not given) | >57 | -3%
COc1cc(C2C3C(C)N(C)C(=O)N(C)C3N(C)C(=O)N2C)ccc1O (stereo not given) | >57 | 2%

3 entries picked at random from the list so far:
SMILES | Prx2 Sm inh | LT uptake inh
CCOC(=O)CN1CC23C=CC(O2)C(C(=O)N2CCN(c4ccc(F)cc4)CC2)C3C1=O (stereo not given) | >57 | 8%
CC1CCCCN1C(=O)Cn1c(=O)n(CCC(=O)NCc2ccco2)c(=O)c2sccc21 (stereo not given) | >57 | 0%
Nc1nc2sc3c(c2c(=O)s1)CCCC3 | >57 | 5%

Next section
SMILES | Prx2 Sm inh | LT uptake inh
Cc1c(C2(O)C(=O)Nc3ccc(F)cc32)c(=O)n(-c2ccccc2)n1C (stereo not given) | >57 | 5%
O=S(=O)(c1ccc(Cl)c(F)c1)N1CCC(c2nc(-c3ccncc3)no2)CC1 | >57 | -8%
CC1(C)NC(=O)N(CC(O)COc2cccc(F)c2)C1=O (stereo not given) | >57 | -4%
Cc1nc(NCc2ccccn2)c2ccccc2n1 | >57 | -6%
COc1ccc(CN2C(=O)CCC2(C)C(=O)NCc2cccnc2)c(OC)c1 (stereo not given) | >57 | 3%
Oc1c(CN2CCCCC2)cc(COCc2ccccc2)c2cccnc12 | >57 | -1%
Cc1ccccc1OCC(=O)Nc1ccccc1N1CCCCC1 | >57 | ?
CCCn1c(C)nc2c(NCCCN(CCO)CCO)nc(C)nc21 | nt | -1%
N[C@@H](C(=O)O)c1ccc(C(=O)O)cc1 | >57&>57 | -16%&-6%
O=C1COc2ccc(C(=O)COC(=O)Cn3cnc4ccccc43)cc2N1 | >57 | 1%
COc1ccc(C2NC(=O)NC3=C2CCc2ccccc23)cc1 (stereo not given) | >57 | ?
CC(=O)Nc1ccc(S(=O)(=O)NCCc2cc3c(C)ccc(C)c3[nH]c2=O)cc1 | >57 | 8%
CCOC(=O)N1CCN(C2=CC(=O)OC23CCCCC3)CC1 | >57 | 8%
CCc1c(C(=O)Nc2ccc(OC)c(Cl)c2)[nH]c(C)c1C(C)=O | >57 | 2%
Cc1cccc(C)c1NS(=O)(=O)c1c(C)[nH]c(=O)[nH]c1=O | >57 | -16%
COCCCNC(=O)CS(=O)Cc1nc(-c2cccc(OC)c2)oc1C (stereo not given) | >57 | 2%
O=C(CCCC(=O)N1CCN(c2ccccc2F)CC1)N1CCN(c2ccccc2F)CC1 | >57 | -4%
Cn1cc(-c2nc3cncnc3n(CCN)c2=O)c2ccccc21 | >57 | -9%
Cc1cc2ncn(C(=O)N3CCCCC3)c2cc1C | >57 | -3%
CC1CCN(C(=O)CN(c2ccc3c(c2)OCO3)S(C)(=O)=O)CC1 | >57 | 1%

Arranged by SMILES length (rising): part of the list above
SMILES | Prx2 Sm inh | LT uptake inh
N[C@@H](C(=O)O)c1ccc(C(=O)O)cc1 | >57&>57 | -16%&-6%
CCCn1c(C)nc2c(NCCCN(CCO)CCO)nc(C)nc21 | nt | -1%
CC1CCN(C(=O)CN(c2ccc3c(c2)OCO3)S(C)(=O)=O)CC1 | >57 | 1%
COc1ccc(CN2C(=O)CCC2(C)C(=O)NCc2cccnc2)c(OC)c1 (stereo not given) | >57 | 3%
CC(=O)Nc1ccc(S(=O)(=O)NCCc2cc3c(C)ccc(C)c3[nH]c2=O)cc1 | >57 | 8%

Next entries follow:
SMILES | Prx2 Sm inh | LT uptake inh
OC[C@H]1O[C@H](n2cnc3c(NC4CCCC4)nc(Cl)nc32)[C@@H](O)[C@@H]1O | >57 | -12%
COc1ccc(N2C(=O)CCC(C(=O)N(C)C3CCCCC3)C2c2ccc(OC)c(OC)c2)cc1 (stereo not given) | >57 | 8%
COc1ccc(-n2c(SCC(=O)Nc3nccs3)nc3c(c2=O)SCC3)cc1 | >57 | 13%
COc1ccc(C(=O)N2CCC[C@@]3(CCN(Cc4nccs4)C3)C2)cc1 | >57 | 0%
COC(=O)COc1ccc(S(=O)(=O)Nc2ccc(NC(C)=O)cc2)cc1 | >57 | 5%
COc1ccc2c(c1)C(=O)N(c1ccccc1OC)C(=O)C2 | >57 | ?
O=C(NCCCN1CCOCC1)c1cccs1 | >57 | nt
COc1ccc(C2/C(=C(/O)c3ccccc3)C(=O)C(=O)N2C)cc1 (stereo not given) | >57 | 13%
CC(=O)Nc1ccc(S(=O)(=O)Nc2c(C)n(C)n(-c3ccccc3)c2=O)cc1 | >57 | -1%
COc1cccc(C(=O)Cn2c(N3CCCCC3)nc3c2c(=O)n(C)c(=O)n3C)c1 | >57 | ?
Cn1c(NC(=O)c2ccccc2Br)cc(=O)n(C)c1=O | >57 | 25%
CCCOc1ccccc1C(=O)N(Cc1ccco1)C1CCS(=O)(=O)C1 (stereo not given) | >57 | 5%
Cc1ccc(NC(=O)CN(C)S(=O)(=O)c2cccs2)cc1F | >57 | -12%
CCOC(=O)C1=C(C)NC(SCC(=O)OC)=C(C#N)C1c1ccc(C(=O)OC)cc1 (stereo not given) | >57 | ?
Nc1nc(N)c2sc3nc4c(cc3c2n1)CCC4 | >57 | 3%
COc1cc(C2=NOC(C(=O)Nc3ccc(C(C)=O)cc3)C2)cc(OC)c1OC (stereo not given) | >57 | 1%
O=C(Nc1cc(C(F)(F)F)ccc1N1CCOCC1)c1ccco1 | >57 | 6%
Cc1ccc(-n2nnnc2SC(C)C(N)=O)c(C)c1 (stereo not given) | >57 | -6%
CN(C)CCCOC(=O)Cc1ccc(Cl)cc1 | >57 | -12%
CC(C)OC(=O)CSc1nnc(-c2cnccn2)n1-c1ccccc1 | >57 | -12%
Cc1ccccc1-c1ccc2ncnc(-n3ccnc3)c2c1 | >57 | 5µM*
CC(C)(C)NC(=O)C(c1ccccc1F)N(Cc1ccco1)C(=O)c1csnn1 (stereo not given) | >57 | -3%
Cc1ccc2oc(=O)c3cnn(CC(=O)Nc4ccccc4N4CCN(C)CC4)c3c2c1 | >57 | ?
C[C@@]12C(=O)OC(=O)[C@@]1(C)[C@H]1CC[C@@H]2O1 | >57&>57 | ?
Cc1ccc(C(=O)NC2CCS(=O)(=O)C2)cc1S(=O)(=O)N1CCCCC1 (stereo not given) | >57 | 8%
c1cc(CN2CCCCC2)cc(OCCCNc2nc3ccccc3s2)c1 | >57&>57 | 25µM*!
CSc1nnc(C2CCNCC2)n1C | >57 | ?
Cc1ccc(-n2c3c(cc(C(=O)Nc4cccc(C)n4)c2=O)C(=O)CCC3)cc1 | >57 | -14%
CC(C)Cc1ccc(S(=O)(=O)N2CCN(C(=O)c3ccco3)CC2)cc1 | >57 | 0%
O=C(CSc1nc2ccccc2[nH]1)NCc1ccco1 | >57 | -4%
Cc1ccc(C)c2[nH]c(=O)c(CN(Cc3ccc4c(c3)OCO4)Cc3nnnn3Cc3ccco3)cc12 | >57 | ?
CCc1nc(N)c(C#N)c(-c2ccc(OC)c(OC)c2)c1C | >57 | -2%
O=C(CN1C(=O)CNC1=O)Nc1cccc(C(F)(F)F)c1 | >57 | 9%
O=C(NCCc1ccccc1)C1CC(=O)N(C2CCCCCC2)C1 (stereo not given) | >57 | ?
Cc1nc2nc(-c3cccnc3)nn2c(C)c1Cl | >57 | -13%
O=C(Nc1cccc(F)c1)c1c(F)c(F)c(F)c(F)c1F | >57 | -6%
Cc1ccc(Cn2c(=O)n(Cc3ccco3)c(=O)c3ccccc32)cc1 | >57 | 0%
O=C1CCCC2=C1C(c1ccccc1)CC(=O)N2c1ccccc1 (stereo not given) | >57 | -3%
COc1ccc(C(=O)Nc2ccc(S(=O)(=O)Nc3cc(C)nc(C)n3)cc2)c(OC)c1 | nt | -2%
CCN(CC(=O)NC1CCCC1)S(=O)(=O)c1ccc(C)cc1 | >57 | ?
CC(C)Oc1cc2oc(=O)c3c(c2cc1Cl)CCC3 | >57 | 5%
CC(C)CCOC(=O)/C=C/c1ccccc1 | nt | -7%
COC(=O)C1=C(NC(=O)c2ccc(C)cc2)CCS1 | >57 | 9%
Cc1nnc(SCC(=O)N(C)Cc2ccccc2)[nH]c1=O | >57 | ?
COc1ccc(C2C(C(=O)OC3CCCCC3)=C(C)Nc3nnnn32)c(OC)c1OC (stereo not given) | >57 | 3%
c1ccc(-c2nc3c4ccccc4nc(N4CCN(c5ccccn5)CC4)n3n2)cc1 | >57 | -8%
Cc1nn2c(c1-c1ccccc1)N=C(c1ccco1)CC2c1ccccc1 (stereo not given) | >57 | ?
Cn1nnnc1SCc1nc2ccccc2s1 | nt | -10%
COCC(=O)N1CCC2(CCN(Cc3ccncc3)CC2)CC1 | >57 | 12%
COC(=O)[C@H](Cc1ccccc1)NC(=O)[C@H]1C[C@@H]1[C@H](NC(=O)OCc1ccccc1)c1ccccc1 | nt | ?
CC(C)(C)n1nnnc1C(c1ccncc1)N1CCCCCC1 (stereo not given) | >57 | 0%
COc1ccc(C)cc1-n1c(-c2ccncc2)n[nH]c1=S | >57 | 4%
CSCCC(NC(=O)c1ccc(C)o1)C(=O)O (stereo not given) | >57 | 6%
CN1C(=O)N(C)C(=O)C2(Cc3c(nc4ccccn4c3=O)N3CCc4ccccc4C32)C1=O (stereo not given) | >57 | -6%
O=C(C1CCCN(S(=O)(=O)c2cccnc2)C1)N1CCN(c2ccccn2)CC1 (stereo not given) | >57 | ?
COc1ccc(Cn2nnnc2C(c2cccnc2)N2CCN(c3ccc(O)cc3)CC2)cc1 (stereo not given) | >57 | ?
O=S(=O)(c1ccc2c(c1)nc(COc1ccc(Cl)cc1)n2CC1CCCO1)N1CCOCC1 (stereo not given) | >57 | -5%
Cc1[nH]c(=S)n(CC2CCCO2)c1C (stereo not given) | >57 | -7%
COc1cc2ccccc2cc1C(=O)Nc1cccnc1 | >57 | 4%
CCC(=O)N1CCN(c2ccc(NC(=O)c3ccc4c(c3)OCO4)cc2)CC1 | >57 | -10%
Carrying on.
SMILES | Prx2 Sm inh | LT uptake inh
CCCNS(=O)(=O)c1ccc(OCC(=O)NCCCOC)cc1 | >57 | nt
CC(C)Cn1nc(NS(=O)(=O)c2ccccc2)c2cc3ccccc3nc21 | >57 | -34%
Cc1ccccc1-c1cncnc1NCCN1CCOCC1 | >57 | ?
O[C@H](CN1CCN(c2cccc(Cl)c2)CC1)C(c1ccccc1)c1ccccc1 | >57&>26 | ?
CC1(C)CC(=O)C(C2(O)C(=O)NC(=O)NC2=O)=C(O)C1 | >57 | -9%
Cc1cc(C)c2nc(N)sc2c1 | >57 | -11%
COc1cccc(=O)c2c(C)oc(C)c12 | >57 | 3%
CCOC(=O)Cc1csc2nc3sc(C)c(C)c3c(=O)n12 | >57 | -3%
CCOc1cccc(C(=O)N(Cc2ccco2)C2CCS(=O)(=O)C2)c1 (stereo not given) | >57 | -12%
NC(=O)c1c(NC(=O)CN2CCOCC2)sc2c1CCC2 | >57 | 4%
C[N+]1(C)CCN(c2ccccc2)CC1 | >57 | 2%
CCC(C)NC(=O)C1CCC(=O)N(c2ccc3c(c2)OCO3)C1c1ccc(OC)cc1 (stereo not given) | >57 | -5%
CN(CCNC(=O)c1cn(C)c2ccc(S(=O)(=O)N(C)C)cc2c1=O)CCc1ccccc1 | >57 | -13%
N/N=C1/c2ccccc2N[C@H]1OC(=O)Nc1ccccc1 | >57 | -10%[8 µM]

Exported as comma-separated lines: part of the list above.
canonical_smiles,Prx2 Sm inh,LT uptake inh
O[C@H](CN1CCN(c2cccc(Cl)c2)CC1)C(c1ccccc1)c1ccccc1,>57&>26,?
CCOC(=O)Cc1csc2nc3sc(C)c(C)c3c(=O)n12,>57,-3%
